RecA splice inh – Mtb RecA intein splicing inhibition; cell-free RecA intein splicing, fluorescence; inhibition, %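 (about 9 µM by stock and volumes)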; hit rate 0.75% among 290,000; in the data active = inhibition above about 30%; inconclusive = no clear call, values can overlap the other calls;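 also: 0% = vehicle wells and 100% = reference inhibitor control wells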
Target sequence (P9WHJ3 whole entry, looked up, canonical isoform): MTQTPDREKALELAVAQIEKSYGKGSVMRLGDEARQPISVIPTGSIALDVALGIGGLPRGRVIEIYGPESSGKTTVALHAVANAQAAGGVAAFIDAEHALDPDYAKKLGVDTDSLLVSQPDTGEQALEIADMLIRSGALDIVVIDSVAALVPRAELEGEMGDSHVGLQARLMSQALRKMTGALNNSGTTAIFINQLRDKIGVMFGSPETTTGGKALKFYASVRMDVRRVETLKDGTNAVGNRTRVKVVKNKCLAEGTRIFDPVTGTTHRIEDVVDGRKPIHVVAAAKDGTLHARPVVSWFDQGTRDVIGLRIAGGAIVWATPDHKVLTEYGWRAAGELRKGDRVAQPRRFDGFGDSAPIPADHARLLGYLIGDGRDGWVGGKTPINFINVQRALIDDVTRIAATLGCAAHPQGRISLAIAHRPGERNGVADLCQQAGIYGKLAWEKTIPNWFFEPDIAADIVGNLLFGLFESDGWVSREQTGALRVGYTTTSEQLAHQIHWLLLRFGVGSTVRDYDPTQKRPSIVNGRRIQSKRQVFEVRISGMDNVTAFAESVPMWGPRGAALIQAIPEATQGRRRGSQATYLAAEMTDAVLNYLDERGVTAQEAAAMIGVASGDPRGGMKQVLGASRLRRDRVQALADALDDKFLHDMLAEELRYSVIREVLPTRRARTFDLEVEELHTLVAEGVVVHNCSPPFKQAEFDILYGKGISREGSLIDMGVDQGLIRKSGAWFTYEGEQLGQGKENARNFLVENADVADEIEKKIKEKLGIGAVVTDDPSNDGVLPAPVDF
Arbovirus inh – arbovirus infection inhibition; AID 1251; arbovirus infection cell-based antiviral screen; hit rate 0.37% among 200,000; inhibition, % at 10 µM;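 active = inhibition from about 30%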;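 also: bluetongue infection of BSR cells; cell survival read as ATP light after 72 h; 0% = infected wells without compound and 100% = uninfected wells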
Mtb growth – M. tuberculosis H37Rv growth inhibitors, H37Rv strain (AID 1626); one-dose inhibition, % at 10 µM; IC50 in µM for titrated hits; M. tuberculosis H37Rv growth inhibition; higher % means a stronger effect; hit rate 0.95% among 220,000;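 active = confirmed in a dose series; inconclusive = inhibition above 80% but not taken into the dose series; inactive = below 80% or under 30% at every dose of the series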;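 also: bacteria incubated seven days before Alamar blue readout; 0% = bacteria only wells and 100% = bacteria with antibiotic wells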
Mtb bLac sens – beta-lactam sensitization of Mtb H37Rv; M. tuberculosis H37Rv growth with meropenem, percent inhibition; hits of this screen are not shown here; inhibition, % at 25 µM; hit rate 0.27% among 330,000;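 active = about 74% or more and at least 40 points above the plate without the antibiotic, then above 30% in a dose series; inconclusive = first-round hits that could not be retested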;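 also: growth measured after seven days incubation then overnight dye step; 0% = bacteria only wells and 100% = bacteria with antibiotic; twin plates without the antibiotic show which effects depend on it; some results filed as inactive read as strong as hits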
YopH inh – blocks Yersinia enterocolitica YopH tyrosine phosphatase. fluorescence Ex485/Em525. hit rate 0.16% among 140,000. AID 898. inhibition, %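 (about 10 µM by stock and volumes)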;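 active = inhibition of 50% or more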;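 also: controls were vehicle for no effect and minimum signal wells for full effect; inactives centre near -20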
Arbovirus inh repeat – recorded beside Arbovirus inh, whose call it bears; inhibition, %; measured here: 10K subset replicate screen; many hits read low in the repeat;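 first of two repeat runs on a subset; 0% = infected and 100% = uninfected wells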
An asterisk follows results filed as active; ? = inconclusive; nt = no result given.

SMILES	RecA splice inh	Arbovirus inh	Mtb growth	Mtb bLac sens	YopH inh	others
COc1cnc(-c2ccccn2)nc1Oc1cccc(C(F)(F)F)c1	2.1	nt	nt	84	nt
CCOCCCNC(=O)C(c1ccccc1)N(Cc1cccs1)C(=O)c1ccccc1O (centres undefined)	0.8	4	5%	-5	nt
O=c1c2ccccc2nc(-c2ccc(-c3ccccc3)cc2)n1-c1ccncc1	12	-5	-3%	88	-32
Cc1ccccc1-n1ncc(C(C)NS(=O)(=O)c2ccccc2Cl)c1C (centres undefined)	4.4	nt	nt	-3	nt
CC(=O)Nc1ccc(S(=O)(=O)NNC(=O)c2cccc3ccccc23)cc1	-4.1	0	-3%	21	-12
CC(Sc1ccsc1[N+](=O)[O-])C(=O)NCc1ccco1 (centres undefined)	3.7	11	8%	0	nt
COc1ccc(CCN2C(=S)N(C)C(=O)C2CC(=O)Nc2ccc(OC)cc2)cc1 (centres undefined)	2.1	-17	13%	1	nt
CCOC(=O)N1CCC(NC(=O)c2ccc(N3CCC4(CC3)OCCO4)c([N+](=O)[O-])c2)CC1	-1.0	6	-7%	-6	nt
CCC1=NN(C(=O)CCc2ccc3c(c2)OCO3)C(O)(C(F)(F)F)C1 (centres undefined)	-0.7	-9	0%	2	nt
O=C(/C=C/c1ccccc1)NC(NC(=S)Nc1ccc(Cl)cc1)C(Cl)(Cl)Cl (centres undefined)	1.6	-12	3%	-3	-20
COc1ccc(C(CCN2CCOCC2)c2c(OC)cc(OC)c3c(C)cc(=O)oc23)cc1 (centres undefined)	-2.6	nt	-3%	-8	nt
COc1cc(C(C(=O)NCc2ccccc2)N(C(=O)c2snc(C(N)=O)c2N)C2CCCC2)cc(OC)c1OC (centres undefined)	1.6	nt	nt	-2	nt
CCOC(=O)C1(CCc2ccccc2)CCN(C(=O)c2cnc(C)cn2)CC1	0.1	2	-20%	-3	nt
COc1ccc(N2C(=O)C(CC(N)=O)N(NC(=O)c3cccc(OC)c3)C2=S)cc1 (centres undefined)	-2.4	14	-4%	-2	nt
CCOc1ccccc1NC(=O)CCNS(=O)(=O)c1cccc2nonc12	-4.9	nt	nt	2	nt
CN(C)C1C(=O)C(C(N)=O)=C(O)C2(O)C(=O)C3=C(O)c4c(O)cccc4C(C)(O)C3CC12 (centres undefined)	-10	nt	nt	99	nt
Cc1ccc2c(c1)C(N1CCCC1=O)CC(c1ccco1)N2 (centres undefined)	-19	-5	-5%	-8	0
O=C(c1cc(-c2ccncc2)nc2ccccc12)N1CCN(S(=O)(=O)/C=C/c2ccccc2)CC1	1.8	-13	9%	10	5
O=C1CC(NNC(=O)c2ccc(Br)cc2)C(=O)N1 (centres undefined)	-2.9	nt	-13%	-2	nt
CC(C)CNC(=O)CC(=O)N/N=C/c1ccc(Br)cc1	-6.7	4	-8%	1	-13

Brought forward from above: 3 entries, then new ones.
SMILES	RecA splice inh	Arbovirus inh	Mtb growth	Mtb bLac sens	YopH inh	others
O=C(c1cc(-c2ccncc2)nc2ccccc12)N1CCN(S(=O)(=O)/C=C/c2ccccc2)CC1	1.8	-13	9%	10	5
O=C1CC(NNC(=O)c2ccc(Br)cc2)C(=O)N1 (centres undefined)	-2.9	nt	-13%	-2	nt
CC(C)CNC(=O)CC(=O)N/N=C/c1ccc(Br)cc1	-6.7	4	-8%	1	-13
O=C(Nc1ccccc1C(=O)N1CCOCC1)c1noc2c1CCCC2	-0.1	11	0%	-1	-35
CC(C)Oc1cccc(C(=O)NC(=S)N2CCN(c3ccc(C(F)(F)F)cc3[N+](=O)[O-])CC2)c1	1.3	-4	22%	-1	10
Nc1ncncc1-c1ccc(Cl)cc1	-0.9	nt	0%	-2	nt
COc1ccc(-c2noc(N3CCC(C(=O)N4CCN(c5ccccn5)CC4)CC3)n2)cc1	-0.4	3	5%	98	-40
CC(C)(C)c1cc(C(=O)Nc2ccc(F)cc2)n(Cc2ccc(F)cc2)n1	11	nt	57%	69	nt
Cc1cc(=O)oc2cc(OC(=O)c3ccco3)ccc12	9.8	3	62µM*	nt	nt
Cc1ccccc1-n1c(SCC(=O)c2cc(C)n(C)c2C)nnc1-c1cccnc1	2.1	-1	-7%	9	-18
CCC(=O)Nc1ncc2c(n1)CC(c1ccco1)CC2=O (centres undefined)	-0.2	4	8%	19	-22
CCOC(=O)Nc1cccc2ccccc12	1.8	-2	8%	4	-15
CN1C(=O)C(CC(=O)NCCc2ccccc2)N(NC(=O)c2ccc(Cl)cc2)C1=S (centres undefined)	-0.2	nt	-4%	2	nt
CCCc1nc(SCC(=O)N2CCN(c3ccccc3)CC2)c2c(=O)n(C)c(=O)n(C)c2n1	-0.5	-7	nt	0	-24
CC(C)(C)c1ccc(/C=C/C(=O)O)s1	0.9	17	-3%	4	nt
Cc1cc(C)cc(C(=O)NC2C(=O)N3C(C(=O)O)=C(CSc4nnc(C)s4)CSC23)c1 (centres undefined)	1.3	1	-3%	5	nt
COC(=O)c1ccc(N2CCN(CC(=O)c3ccc(-c4ccccc4)cc3)CC2)c([N+](=O)[O-])c1	-0.2	1	nt	46	-54
CCCCn1c(SCC(=O)c2ccc3c(c2)OCCO3)nnc1-c1ccco1	-0.6	11	-3%	-4	-15
COC(=O)c1sccc1NC(=O)c1cccc(F)c1	2.3	nt	nt	7	nt
Cc1ccc(CNC(=O)c2ccc([N+](=O)[O-])o2)cc1	-13	-6	<0.39µM*	100	-26
CCOc1ccccc1NC(=O)c1cc(S(=O)(=O)NCc2ccco2)ccc1F	-1.5	nt	nt	6	nt
COCCn1c(Cc2ccccc2)nnc1SCC(=O)Nc1oc(C)c2c(C)n[nH]c(=O)c12	6.3	nt	nt	-6	nt
Cc1ccc(NC(=O)c2c(C)noc2C)cc1	-1.6	-4	-10%	-1	-38

Pulled by structure from the entries so far, six records:
SMILES	RecA splice inh	Arbovirus inh	Mtb growth	Mtb bLac sens	YopH inh	others
CN1C(=O)C(CC(=O)NCCc2ccccc2)N(NC(=O)c2ccc(Cl)cc2)C1=S (centres undefined)	-0.2	nt	-4%	2	nt
CCOC(=O)Nc1cccc2ccccc12	1.8	-2	8%	4	-15
CCCCn1c(SCC(=O)c2ccc3c(c2)OCCO3)nnc1-c1ccco1	-0.6	11	-3%	-4	-15
CCOc1ccccc1NC(=O)c1cc(S(=O)(=O)NCc2ccco2)ccc1F	-1.5	nt	nt	6	nt
O=C(Nc1ccccc1C(=O)N1CCOCC1)c1noc2c1CCCC2	-0.1	11	0%	-1	-35
Cc1ccc(CNC(=O)c2ccc([N+](=O)[O-])o2)cc1	-13	-6	<0.39µM*	100	-26

Next part.
SMILES	RecA splice inh	Arbovirus inh	Mtb growth	Mtb bLac sens	YopH inh	others
Cc1ccc(S(=O)(=O)CNC(=O)c2ccccc2)cc1	nt	2	0%	-2	-11	Arbovirus inh repeat=7
O=C(CC12CC3CC(CC(C3)C1)C2)N/N=C/c1ccncc1	0.7	8	-3%	-2	-5
CC(C)OCCCn1c(=S)[nH]c2cc3c(cc2c1=O)OCO3	-0.6	0	-9%	?	-55
NNC(=O)C1CCCN1S(=O)(=O)c1ccc(Cl)cc1 (centres undefined)	-1.0	3	-4%	-11	nt
O=C(CSc1ccc(-c2ccccn2)nn1)NC1CCCCC1	-1.0	-26	2%	-1	nt
COc1ccc(NC(=O)N(CCCN2CCOCC2)Cc2cccnc2)c(OC)c1	-2.4	2	-8%	-2	-5	Arbovirus inh repeat=-2
COn1c(-c2ccccc2)c(C=O)c2ccccc21	5.0	nt	nt	5	nt
CCOC(=O)c1cnn(CC2CCCCC2)c1N	-0.5	-9	-8%	-17	-23	Arbovirus inh repeat=0
S=C(NCCN1CCOCC1)Nc1ccc(Cl)c(Cl)c1	0.5	8	2%	0	nt
O=C(NC1CCCCC1)N1CCCC(c2nc(-c3ccc(S(=O)(=O)N4CCCC4)cc3)no2)C1 (centres undefined)	-3.7	-17	-9%	-5	-37
O=S(=O)(Nc1ccc2c(c1)CCC2)c1cccs1	0.4	4	7%	4	-45
Nn1c(SCC(=O)Nc2ccc3c(c2)OCO3)nnc1-c1ccncc1	-1.1	-3	nt	1	-22
CN(CC(=O)Nc1cccc2c1CCCC2)S(=O)(=O)c1ccccc1	-1.6	-2	-3%	-9	-24
CC(=O)Nc1sc2c(c1C#N)CCC(C)C2 (centres undefined)	1.6	-5	1%	-1	nt
O=C1CCCc2ccccc2N1Cc1cccc(Cl)c1	7.0	7	2%	4	-30
Cc1cc(C)cc(NC(=O)Nc2cccnc2)c1	-2.6	nt	nt	0	nt
CCOC(=O)C(Cc1ccc(O)cc1)NC(=O)CNC(=O)C(CC(C)C)NC(=O)OC(C)(C)C (centres undefined)	-0.8	5	1%	-1	10
CC(NC(=O)Oc1ccccc1)C(c1cccs1)N1CCOCC1 (centres undefined)	1.1	-4	-2%	-5	-24
COC(=O)c1ccc(CSc2nnnn2-c2ccccc2)o1	-0.2	10	15%	-2	-30
Cc1ccccc1C(=O)Nc1cccc(-c2nnc(SCC(=O)O)n2C)c1	nt	9	6%	-7	-19
Cn1cccc1/C=N/NC(=O)Cn1cnc2ccccc21	0.5	0	-1%	28	-32
C#CCSc1nc(C)cc(C(=O)OCC)c1C#N	nt	nt	-3%	16	nt
O=C(Nc1cccc(-c2ccc(F)cc2)c1)C1CCCN(C(=O)c2cscn2)C1 (centres undefined)	-2.4	nt	nt	1	nt
CC(C)c1ccc(N2C(=O)C3C4C=CC(CC4)C3C2=O)cc1 (centres undefined)	-0.7	nt	nt	0	nt
Cc1c(C(=O)N2CCN(S(C)(=O)=O)CC2)oc2ccccc12	1.4	0	-6%	-6	-1
CCCNC(=O)CNC(=S)N(Cc1cc(OC)c(OC)c(OC)c1)C1CCCC1	-2.6	3	-4%	-1	-19
CC(C)CNC(=S)N1CCN(C(c2ccccc2)c2ccccc2)CC1	10	8	-3%	7	-23
CC1CN(c2ccc(C(=O)c3ccccc3C(=O)O)cc2[N+](=O)[O-])CC(C)O1 (centres undefined)	nt	8	-4%	17	nt
COc1ccc(C2=NN(CC(=O)Nc3ccccc3C)C(=O)CC2)cc1	-1.7	nt	6%	-3	nt
CC[n+]1c(SC)ccc2cc(OC)ccc21	-4.6	-13	4%	-4	-15
COc1ccc(CC2(CO)CCN(Cc3ccc4nsnc4c3)CC2)cc1	1.8	0	-3%	0	nt
O=c1c(C=NCCN2CCNCC2)c(-c2ccccc2)[nH]n1-c1ccc([N+](=O)[O-])cc1	3.0	-15	6%	7	nt
COc1ccc(NC(=O)CC2C(=O)N(Cc3ccccc3)C(=S)N2CCN2CCOCC2)cc1 (centres undefined)	3.2	0	2%	3	nt
CC(=O)Nc1ccc2nc(-c3ccc(Br)o3)[nH]c2c1	1.1	-7	-1%	-5	-27
CCCCCCC12CCC(C(=O)O)(CC1)CC2	3.7	-25	-5%	-5	4
CN(C)CCOC(=O)c1ccc2c(c1)S(=O)(=O)c1ccccc1C2=O	-0.4	nt	0%	-8	nt
CCN1CCN(c2nc3c(c(=O)n(C)c(=O)n3C)n2CCSc2ncccn2)CC1	-2.4	4	-3%	8	11
O=C(C1=C(O)C(=O)N(CCN2CCOCC2)C1c1ccc(Cl)cc1)c1cc2ccccc2o1 (centres undefined)	0.0	nt	nt	7	nt
COc1cccc(C2CCCN2Cc2nc(-c3sccc3C)oc2C)c1 (centres undefined)	3.3	14	-3%	-4	nt
CCOc1cccc(-c2cc(C(=O)N3N=C(C)CC3(O)C(F)F)c3ccccc3n2)c1 (centres undefined)	4.4	0	0%	15	nt
CCOc1cc2c(C#N)c(N3CCCC3)nc(N)c2c(N)n1	3.9	nt	-6%	-21	nt
COc1ccc2ccccc2c1CNC(C)CCc1ccccc1 (centres undefined)	-2.3	nt	nt	11	nt
N#C/C(=C/c1cccc([N+](=O)[O-])c1)C(=O)Nc1ccccc1O	0.5	nt	-1%	-8	nt
COc1cccc(NC(=O)C2CCCCC2)c1	2.9	6	3%	-10	-4
O=C(NNC(=O)c1cc(Cl)ccc1[N+](=O)[O-])c1csc(N2CCOCC2)n1	3.5	nt	nt	42	nt
CCC(=O)N(Cc1cc(=O)[nH]c2ccccc12)c1ccccc1OC	-1.6	nt	nt	-4	nt
COc1ccc(OC)c(C(=O)Cn2cnc3ccccc3c2=O)c1	-2.3	nt	nt	-2	nt
CCOc1cc(-c2nc3ccccc3s2)ccc1O	2.5	nt	69%	96	nt
CC(C)(C)c1ccc(C(=O)Nc2ccc([N+](=O)[O-])cn2)cc1	0.9	3	3%	27	-24
c1ccc(-c2cnnc(-c3ccccn3)n2)cc1	0.3	nt	9%	-1	nt
Cc1cccc(N2CCN(C(=S)Nc3ccc4nc(N5CCOCC5)cc(C)c4c3)CC2C)c1 (centres undefined)	nt	-6	7%	85	nt
N#C/C(=C\c1ccc(OCc2ccc(C(=O)O)cc2)cc1)C(=O)N1CCOCC1	1.3	1	-8%	5	-26
CSc1cccc(-n2ccc(=O)c(C)c2C)c1	0.8	nt	nt	1	nt

From PubChem

A portion of the library; the hit share may differ from the screen's.
